# High-throughput results (PubChem)
# MT1-MMP promoter: MT1-MMP gene expression reporter suppression – cell-based, luciferase reporter, luminescence (AID 618). MT1-MMP promoter luciferase reporter cells, luminescence. 87,000 compounds, 0.62% hits. calls from a first round at 10 µM; hits with a dose series show EC50 in µM;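 active means over half of the reporter light lost at 10 µM or EC50 under 50 µM; inactive means the rest and hits that failed the dose series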;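 further: actives suppress MT1-MMP promoter-driven transcription so potencies describe inhibitors; HT1080 fibrosarcoma cells; overnight exposure; toxic or luciferase-blocking compounds were not removed from the actives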
# WNV NS2B-NS3 inh: inhibitors of West Nile virus NS2B-NS3 protease | z-score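 (tested at a level between 10 and 100 µM)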 | AID 577 | WNV NS2B-NS3 protease, fluorogenic substrate Ex360/Em465; stronger effect = lower value | 65,000 compounds, 0.18% hits;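 active means z-score at -3 or under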;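 further: score is relative to mean and spread of the compound wells of a plate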
# Target sequence (P06935 1371-1501 limits assumed): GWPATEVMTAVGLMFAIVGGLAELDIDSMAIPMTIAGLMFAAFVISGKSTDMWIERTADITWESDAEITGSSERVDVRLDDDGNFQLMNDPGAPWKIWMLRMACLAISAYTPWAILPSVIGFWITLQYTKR
# Target sequence (P06935 1502-1679 limits assumed): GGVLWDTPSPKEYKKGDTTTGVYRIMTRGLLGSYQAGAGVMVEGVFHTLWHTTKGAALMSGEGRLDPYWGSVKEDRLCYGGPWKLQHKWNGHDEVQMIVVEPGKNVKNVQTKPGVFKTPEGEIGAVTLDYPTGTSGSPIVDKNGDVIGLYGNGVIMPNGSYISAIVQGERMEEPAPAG
# Hsc70 ATP site: small molecules displacing fluorescent ligand from Hsc70 – biochemical, fluorescence polarization, primary screen (AID 568); displacement, % at 20 µM, or IC50 in µM where a hit was titrated; 83,000 tested, under 10 active; Hsc70 fluorescence polarization, probe displacement; higher % means a stronger effect; strong numbers were not always called active;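 active means displacement above 50% without optical interference and an IC50 on retest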;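 further: ATPase domain with a fluorescein-tagged ATP probe; 0% = vehicle and 100% = excess ADP; read after one hour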
# * = called active by the depositor; i = inactive; . = not tested or not shown.
SMILES,MT1-MMP promoter,WNV NS2B-NS3 inh,Hsc70 ATP site
CNC(=O)c1cc2c(=O)n3cc(C)ccc3nc2n(Cc2ccco2)c1=N,i,0.82,0.5%
COc1ccc(NC(=O)C2=C(C)C(=O)OC23CCC(C)CC3)c(OC)c1 (stereo not given),i,0.79,4.9%
CCOC(=O)/C(C#N)=C1/CCCCCN1C,i,-0.01,-4.8%
CCOC(=O)Oc1ccc2oc(C)c(C(=O)OCCOC)c2c1,i,-0.99,-0.1%
COc1ccccc1S(=O)(=O)Cc1ccc(C(=O)N2CCN(c3cccc(Cl)c3)CC2)o1,i,-0.18,-6.4%
CCCn1c2ccccc2c2nnc(SCC(=O)OC)nc21,i,0.86,-1.4%
Cc1ccc(-n2nc(C)c(C3C(C#N)=C(N)OC4=C3C(=O)CCC4)c2Cl)cc1 (stereo not given),i,-0.99,2.8%
COc1ccc(Cl)cc1C(=O)Nn1cnc2ccccc2c1=O,i,-0.74,2.0%
Cc1ccc2[nH]cc(C(=O)CN3CCN(c4ccccn4)CC3)c2c1,i,-0.19,-13%
COc1ccc(Nc2nc(C)cc(C)c2C#N)cc1OC,i,-1.7,5.0%

# Filtered by structure: those above with sulfur.
SMILES,MT1-MMP promoter,WNV NS2B-NS3 inh,Hsc70 ATP site
COc1ccccc1S(=O)(=O)Cc1ccc(C(=O)N2CCN(c3cccc(Cl)c3)CC2)o1,i,-0.18,-6.4%
CCCn1c2ccccc2c2nnc(SCC(=O)OC)nc21,i,0.86,-1.4%

# (more compounds)
SMILES,MT1-MMP promoter,WNV NS2B-NS3 inh,Hsc70 ATP site
COc1ccc(C2C(C#N)=C(C)NC3=C2C(=O)c2ccccc23)cc1 (stereo not given),i,0.57,4.8%
CSCCC(NC(=O)c1ccccc1)C(=O)NC1CCCC1 (stereo not given),i,0.08,-0.4%
Cc1cc(C(=O)Nc2ccc3c(c2)OCO3)cs1,i,-0.39,-2.2%
COc1nnnc2c1sc1nc(N3CCOCC3)c3c(c12)CC(C)(C)OC3,i,-0.26,-6.3%
Cc1cccc(NS(=O)(=O)c2ccc(Br)s2)n1,i,.,0.5%
O=C(COC(=O)Cn1[nH]c(=O)c2ccccc2c1=O)Nc1ccc2c(c1)OCO2,i,-0.76,3.7%
CCOC(=O)C1C(=O)Nc2nc3ccccc3n2C1C(C)C (stereo not given),i,0.84,-0.7%
O=C(CSc1nnc2scc(-c3ccccc3)n12)Nc1ccc2c(c1)OCCO2,i,1.4,2.6%
Cc1nnc2n(Cc3ccccc3)c(=O)c3c4c(sc3n12)COC(C)(C)C4,i,-0.23,1.8%
CCCCC(=O)Nc1ccc(Br)cn1,i,.,-0.5%
Cc1ccc2[nH]c(=O)c(CN(CCCN(C)C)C(=O)Nc3ccc(Cl)cc3)cc2c1,i,.,8.2%
CCOC(=O)c1ccc(NC(=O)CSc2nnc(COc3ccccc3)n2C)cc1,i,0.08,5.6%
CCOC(=O)CSc1nc2cc3c(cc2cc1C#N)OCO3,i,-1.3,-1.9%
Clc1ccccc1OCCn1cnc2ccccc21,i,1.4,1.8%
COc1ccc(C2C3=C(CCCC3=O)Nc3c(-c4ccccc4)c(C)nn32)cc1 (stereo not given),i,.,1.2%
Nc1nc(-c2ccccc2)cc(C(F)(F)F)n1,i,-1.6,-3.1%
COc1ccc2[nH]c3c(=O)n(Cc4ccco4)cnc3c2c1,i,-0.07,6.6%
COc1cccc(-c2nc(NCc3ccco3)c3ccccc3n2)c1O,i,0.04,3.0%
COc1cccc(C(=O)CSc2nnc(-c3cc(OC)c(OC)c(OC)c3)o2)c1,i,0.23,-2.1%
CC(C)Oc1ccc(C2CNC(=O)C2)cc1 (stereo not given),i,-0.58,1.5%

# Copied from above, two compounds:
SMILES,MT1-MMP promoter,WNV NS2B-NS3 inh,Hsc70 ATP site
CNC(=O)c1cc2c(=O)n3cc(C)ccc3nc2n(Cc2ccco2)c1=N,i,0.82,0.5%
COc1ccc(NC(=O)C2=C(C)C(=O)OC23CCC(C)CC3)c(OC)c1 (stereo not given),i,0.79,4.9%

# Continuation.
SMILES,MT1-MMP promoter,WNV NS2B-NS3 inh,Hsc70 ATP site
CCn1nccc1C(=O)Nc1nc2ccccc2n1CCN1CCCCC1,i,.,4.6%
CC(=O)c1cccc(NC(=O)C2CCN(S(C)(=O)=O)CC2)c1,i,0.46,-2.6%
O=C(Nc1cccc(Cl)c1)N1CCN(c2ncccn2)CC1,i,-1,5.2%
COc1ccc(N2CCN(C(=O)CSc3nnc(-c4ccc5[nH]c(C)c(C)c5c4)o3)CC2)cc1,i,-0.08,4.4%
c1ccc(CN2CCC3(CC2)Nc2ccccc2CO3)cc1,i,-0.1,2.8%
CC1=CC(C)(C)N=C(Nc2ccc(C)cc2)S1,i,-1.6,2.7%
COc1cccc(C2=NOC(C(=O)Nc3ccccc3SC)C2)c1 (stereo not given),i,.,2.6%
COC(=O)c1ccc(CNC(=O)CNc2cc(C(F)(F)F)ccc2N2CCOCC2)cc1,i,-0.49,3.4%
CSc1ncccc1C(=O)NCc1ccc(C)cc1,i,.,-1.3%
COc1cccc(CNC(=O)C2CCN(S(=O)(=O)c3cnc[nH]3)CC2)c1,i,0.0077,5.9%

# Of the compounds above, these contain a CF3 group:
SMILES,MT1-MMP promoter,WNV NS2B-NS3 inh,Hsc70 ATP site
Nc1nc(-c2ccccc2)cc(C(F)(F)F)n1,i,-1.6,-3.1%
COC(=O)c1ccc(CNC(=O)CNc2cc(C(F)(F)F)ccc2N2CCOCC2)cc1,i,-0.49,3.4%

# Additional compounds follow.
SMILES,MT1-MMP promoter,WNV NS2B-NS3 inh,Hsc70 ATP site
CCc1cc(=O)oc2cc(OCC(=O)O)c(Cl)cc12,i,-0.04,0.1%
O=C(CSc1nnc(-c2cccs2)n1-c1ccccc1)N1CCN(C(=O)c2ccco2)CC1,i,0.12,2.2%
O=C(O)CCS(=O)(=O)Cc1cccc(Cl)c1,i,-0.96,2.6%
Cn1c(Cn2nnc3ccccc32)nnc1SCC(=O)Nc1ccc2c(c1)OCO2,i,-0.96,-0.2%
Cc1occc1C(=O)NCCCCNC(=O)c1ccoc1C,i,-0.17,1.4%
Cc1nc(CC(=O)c2c(C)cc(O)cc2O)cs1,i,-0.61,2.3%
O=S(=O)(c1cccc(-c2nnc(SC(F)F)n2-c2ccccc2)c1)N1CCCCC1,i,-0.23,0.9%
CCCOc1ccc(C2C(=O)N(C3CCCCC3)CC(=O)N2CCCOCC)cc1OC (stereo not given),i,-0.35,-4.0%
CC1N=C2c3ccccc3N=C(SCc3cc(=O)n4cc(Cl)ccc4n3)N2C1=O (stereo not given),i,0.9,-3.4%
Cn1c(=O)cc(SCC(=O)N2CCCC2)c2ccccc21,i,-0.43,4.7%
CCCc1cc(=O)[nH]c(SCc2cccnc2)n1,i,.,2.6%
COc1cccc(CN2C(=O)N(C(C)C)C(N(O)C(=O)NC(C)C)C2(C)C)c1OC (stereo not given),i,.,0.6%
CCn1c(SCC(=O)Nc2oc(-c3ccccc3)c(-c3ccccc3)c2C#N)nnc1-c1ccncc1,i,.,-4.2%
Cc1cc(NCCCCO)n2c(nc3ccccc32)c1C#N,i,0.33,4.2%
CCN(Cc1ccccc1)C(c1ccc(C)cc1)c1nnnn1C(C)(C)C (stereo not given),i,.,-6.6%
O=C(N/N=C/C(Br)=C/c1ccccc1)c1n[nH]c2c1CCC2,i,.,-0.6%
CCN(c1ccccc1)S(=O)(=O)c1ccc2[nH]cc(C(=O)N3CCOCC3)c(=O)c2c1,i,1.4,-3.7%
O=C(Nn1cnnc1)c1cc(-c2ccccn2)nc2ccccc12,i,-0.9,3.8%
CCOC(=O)C1C(=O)NC(N2CCN(Cc3ccccc3)CC2)=NC1c1ccco1 (stereo not given),i,-0.96,2.0%
O=C(CCC(=O)OCCCC(F)(F)C(F)(F)F)NC1CCCCC1,i,-0.08,5.2%
O=C(Nc1nc2ccc(S(=O)(=O)N3CCCC3)cc2s1)c1cccs1,i,-2,-1.1%
O=c1c2c3c(sc2ncn1-n1cccc1)CCCCC3,i,.,3.3%
CC(C)C(NC(=S)NCc1ccccc1)C(=O)O (stereo not given),i,.,-3.5%
CN1CCCC(OC(=O)COc2ccc(Br)cc2)C1 (stereo not given),i,0.71,1.7%
CCOC(=O)CSc1nnc(CNC(=O)c2cc(OCC)c(OCC)c(OCC)c2)n1C,i,-1.1,-1.9%
COc1cc(C)nc(N2CCCC(C(=O)Nc3cccc(Cl)c3Cl)C2)n1 (stereo not given),i,-0.4,2.0%
O=C(Nc1ccccc1)N(CCc1nc2ccccc2[nH]1)C1CCCC1,i,-0.69,5.2%
CCn1cnc2sc(C(=O)O)c(C)c2c1=O,i,0.08,-0.5%
CCN(CC)S(=O)(=O)c1ccc(Cl)c(C(=O)Nc2nnc(C)s2)c1,i,-0.64,-0.7%
COc1ccc(/C=C/C(=O)NCC(=O)N/N=C/c2cc(Br)ccc2OCc2ccccc2)cc1,i,.,0.8%
COc1ccc2c(c1)cc(C(=O)O)n2C,i,-0.41,-0.6%
O=C(CN1CCN(c2ccc(F)cc2)CC1)OCc1ccccc1,i,0.22,-1.1%
Cc1cccc(NC(=O)C2CCCN2C(=O)OCC(C)C)c1C (stereo not given),i,0.35,3.2%
Cn1cccc1-c1cc(C(=O)O)[nH]n1,i,-1.3,-0.3%
Cc1cc(-c2nc3ncccc3o2)ccc1N,i,4.4,-1.9%
Cc1cccc(-n2ncc3c(Nc4ccc(F)cc4)ncnc32)c1,i,-0.16,-3.7%
Fc1ccc(-c2nnc3sc(C4COc5ccccc5O4)nn23)cc1 (stereo not given),i,-0.91,-13%
COc1ccc2[nH]c(=O)c(CN(C(=O)C3CCCO3)c3ccc(C)cc3)cc2c1 (stereo not given),i,-0.29,-4.2%
c1ccc(Oc2cccc(NC3=NCCC3)c2)cc1,i,0.11,-4.3%
CCn1cc(C(=O)NCc2ccccc2OC)c(=O)c2ccc(C)nc21,i,-0.72,1.4%

# Some of these compounds in order of length of the SMILES, rising.
SMILES,MT1-MMP promoter,WNV NS2B-NS3 inh,Hsc70 ATP site
CCn1nccc1C(=O)Nc1nc2ccccc2n1CCN1CCCCC1,i,.,4.6%
COc1cccc(CNC(=O)C2CCN(S(=O)(=O)c3cnc[nH]3)CC2)c1,i,0.0077,5.9%
CC1N=C2c3ccccc3N=C(SCc3cc(=O)n4cc(Cl)ccc4n3)N2C1=O (stereo not given),i,0.9,-3.4%

# The list goes on:
SMILES,MT1-MMP promoter,WNV NS2B-NS3 inh,Hsc70 ATP site
COc1ccc(S(=O)(=O)N2CCC(C(=O)N3CCN(c4ccccc4OC)CC3)CC2)cc1,i,-0.89,0.0%
CC(=O)N(C)c1nc(-c2ccc(Cl)cc2)cs1,i,-0.7,5.0%
CC(SCCc1ccccn1)C(=O)O (stereo not given),i,0.74,4.1%
ON1C(c2ccc(Cl)cc2Cl)N(O)[C@H]2CCCC[C@H]21 (stereo not given in full),i,-1.4,8.0%
Cc1onc(-c2ccccc2Cl)c1C(=O)N1CCN(c2cccc(Cl)c2)CC1,i,0.52,3.2%
COc1ccc(F)cc1S(=O)(=O)N1CCN(Cc2ccc3c(c2)OCO3)CC1,i,0.26,4.9%
CCOC(=O)Cn1c(=O)oc2cc(S(=O)(=O)N3CCN(c4ccccn4)CC3)ccc21,i,0.71,-1.0%
Cn1c(SCc2cccc3ccccc23)nnc1-c1ccco1,i,0.59,-7.2%
CSc1nnc(-c2ccc(O)cc2)n1C,i,-0.26,-6.1%
CCc1cccc(NC(=O)Cn2cccc2)c1,i,0.05,2.0%
COC(=O)C1Sc2[nH]c(=O)sc2C2c3ccccc3OC(=O)C12 (stereo not given),i,-0.89,-5.0%
CCN1CCN(C(=O)c2nn(-c3ccccc3)c(=O)c3ccccc23)CC1,i,.,-3.1%
O=c1c(-c2cccc3ccccc23)[n+]([O-])c2ccccc2n1O,i,.,-3.9%
COc1ccccc1-c1nc(S(=O)(=O)c2ccc(Cl)cc2)c(N(C)C)o1,i,-0.24,-2.0%
O=C(COC(=O)c1ccccc1Oc1ccccc1)NC1CCS(=O)(=O)C1 (stereo not given),i,1.6,-3.1%
Cc1cc(C)cc(N(C(=O)C2CCCC2)C2C=CS(=O)(=O)C2)c1 (stereo not given),i,-1.3,0.9%
O=C(CN(C1CCCCC1)S(=O)(=O)c1ccccc1)N1CCCC1,i,0.46,-0.9%
CCOc1nc(-c2ccccc2O)nc2ccccc12,i,0.01,-0.7%
CCCn1c(SCC(=O)NC)nnc1C(C)C,i,-0.72,0.0%
Cc1cccc(Nc2nc(N)nc(CN3CCN(C)CC3)n2)c1,i,0.07,-2.6%
CCOc1cc2[nH]c(=O)n(CCC(=O)NCCc3ccccc3)c(=O)c2cc1OCC,i,-1,-1.8%
N#Cc1c(N)n(CCNC(=O)c2cccs2)c2nc3ccccc3nc12,i,2.9,-21%
Cc1ccc(S(=O)(=O)N(C)c2ccc(OCC(=O)OCc3c(C)noc3C)cc2)cc1,i,-0.32,4.2%
CC(C)(C)OC(=O)N[C@@H](Cc1c[nH]c2ccccc12)c1nnc(SCC(N)=O)o1,i,1.1,-7.2%
Cc1ccc(-n2nc3c(c2NC(=O)c2cccs2)CSC3)cc1,i,-1.1,0.9%
CC(C)(Oc1cccc2ccccc12)C(=O)O,i,0.13,2.0%
CCN(CC)CC(C(=O)N(CC)CC)P(=O)(c1ccccc1)c1ccccc1 (stereo not given),i,.,-0.7%
CSc1ccccc1NC(=O)c1ccc(C)o1,i,2,3.0%
CC(C)CCSc1nc(N)c(C#N)cc1C#N,i,0.16,3.1%
COc1ccccc1C(=O)NCCn1cc(SCC(=O)NCc2ccco2)c2ccccc21,i,-0.44,-2.2%
